ClpP mod: qHTS Assay for Activators of ClpP. ATP-dependent Clp protease proteolytic subunit (Bacillus subtilis (strain 168)), P80244. purified B. subtilis ClpP, FRET peptide cleavage, 20 min. Potency, µM (titrated, usually from 57.5 µM), inactives show top-dose activity change, negative = active. 340,000 tested, 1.9% active. AID 651965, 2013; active = well fitted falling curve with a large enough effect; inconclusive = small, poorly fitted or top-dose-only effect; inactive = no such curve, though single readings can be large or run the other way; also: potency is read from the fitted curve at half-maximal effect; the source files actives as falling curves though it sought activators and does not explain the sign; nearly all actives have a fitted effect of over 65% in size; many hits overshoot -100%
Target sequence (P80244 whole entry, looked up): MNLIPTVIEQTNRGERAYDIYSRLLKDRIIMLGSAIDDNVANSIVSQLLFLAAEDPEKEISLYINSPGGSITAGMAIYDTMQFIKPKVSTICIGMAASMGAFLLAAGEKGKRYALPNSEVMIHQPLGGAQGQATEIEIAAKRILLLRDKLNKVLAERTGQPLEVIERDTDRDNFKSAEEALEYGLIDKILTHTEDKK
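Buffer: 100 mM Tris/HCl pH8, 100 mM KCl, 0.05% low protease BSA, 2.5% glycerol, 0.01% Tween-20. ClpP 10 microg/mL final; 20 min RT; delta FRET normalized to ADEP and DMSO controls.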
TRPML1 inh: qHTS for Inhibitors of the Human Mucolipin Transient Receptor Potential 1 (TRPML1); TRPML1-inducible cells, Ca2+ dye fluorescence, FDSS; hits give low values; inhibition of EC80 agonist-evoked calcium signal; 390,000 tested, 0.02% active; AID 624415, 2012; activity change, negative = inhibition, % (concentration not given with the values); in the data active means activity change below about -50%; inconclusive means about -30% to -50%; inactive means above about -30%;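 also: stimulus is agonist 54-4 at its EC80 concentration; % is scaled to controls: 0 for no effect and ±100 for the full control effect; compound concentration not given in the record; the text of the record puts the active cut at -80%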
Target sequence (Q9GZU1 whole entry, looked up): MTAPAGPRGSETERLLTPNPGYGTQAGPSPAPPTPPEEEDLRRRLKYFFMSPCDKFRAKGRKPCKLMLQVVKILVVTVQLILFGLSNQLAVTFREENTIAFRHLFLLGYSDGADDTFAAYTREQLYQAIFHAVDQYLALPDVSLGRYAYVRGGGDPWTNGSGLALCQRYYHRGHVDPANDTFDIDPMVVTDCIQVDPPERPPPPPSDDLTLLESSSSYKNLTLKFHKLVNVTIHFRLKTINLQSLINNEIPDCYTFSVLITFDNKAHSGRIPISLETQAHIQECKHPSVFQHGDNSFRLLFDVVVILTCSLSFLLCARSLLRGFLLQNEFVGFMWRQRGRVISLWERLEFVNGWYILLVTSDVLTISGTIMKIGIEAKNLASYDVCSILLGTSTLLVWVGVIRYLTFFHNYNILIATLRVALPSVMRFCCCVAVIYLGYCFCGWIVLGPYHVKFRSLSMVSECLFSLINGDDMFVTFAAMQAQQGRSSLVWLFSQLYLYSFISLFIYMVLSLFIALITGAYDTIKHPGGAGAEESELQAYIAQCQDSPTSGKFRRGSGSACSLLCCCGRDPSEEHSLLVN
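TRPML1-DL cells, Tet-induced overnight (~16 h, 37 °C) at 1,500 cells/well, were loaded with Ca8 no-wash dye plus quencher for 45-90 min at room temperature. Compounds were pinned during FDSS kinetic reading; agonist 54-4 at EC80 (4 uM final) then added.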
The depositor's hits bear a star; ? = inconclusive.

SMILES	ClpP mod	TRPML1 inh
COc1ccccc1N1CCN(C(=O)CCS(=O)(=O)c2cc(Br)cc3c2N(C(C)=O)CC3)CC1	-3.7%	-1
COc1ccc2c(c1)c1c(c(=O)n(Cc3ccccc3)c(=O)n1CC(=O)Nc1cc(C)cc(C)c1)n2C	?	12
O=C(CCc1ccccc1)N(Cc1cccnc1)c1nc2c(F)cccc2s1	-3.4%	73
CN(C)c1ccc(C(=O)NCc2ccc3c(c2)CCN3C(=O)c2ccccc2)cc1	-6.0%	23
CCN(CC)CCNC(=O)c1ccc2c(c1)NC(=O)C(CS(=O)(=O)Cc1cccc(Br)c1)N2 (stereo not drawn)	7.9µM*	-4
Cc1ccc(-c2nc3c4ccccc4n(CC(=O)N4CCN(c5ccc(F)cc5)CC4)c(=O)n3n2)cc1	-3.6%	27
CCN1CCN(c2cc(C)c3cc(NC(=O)c4cc(OC)c(OC)c(OC)c4)ccc3n2)CC1	?	1
O=C1CN(C(=O)c2ccc(S(=O)(=O)N3CCCC3)cc2)C(c2ccccc2)c2cc(Cl)ccc2N1 (stereo not drawn)	0.1%	18
Cc1ccccc1CNC(=O)Cn1c(=O)c2cccn2c2cccnc21	?	22
Cc1ccc(NC(=O)c2oc3ccc(S(=O)(=O)N4CCCCC4)cc3c2C)cc1Cl	-14%	12
COc1ccc(/C=C/C(=O)Nc2ccc3nc(N4CCC(C)CC4)cc(C)c3c2)cc1OC	-1.0%	-14
Cc1cccc(Nc2nnc(-c3ccc(C)c(S(=O)(=O)N4CCCCC4)c3)c3ccccc23)c1	-1.5%	2
O=C(CS(=O)(=O)c1cccc2nsnc12)Nc1cc(F)ccc1F	-0.6%	7
CCOC(=O)C1CCN(C(=O)c2nn(-c3ccc(C)cc3)c(=O)n(C)c2=O)CC1	-2.0%	2
CCc1cccc(-n2nnc(-c3nc(-c4cccs4)no3)c2N)c1	-6.7%	1
Cc1ccc2cccc(NC(=O)C(C)(C)Oc3ccc(Br)cc3)c2n1	-24%	8
CN(Cc1ccccc1)C(=O)c1ccc2c(c1)N(Cc1ccc(Cl)cc1)C(=O)c1ccccc1S2=O (stereo not drawn)	0.1%	17
CCC(Cc1ccccc1)NC(=O)Cn1ncc2c3ccccc3n(Cc3ccccc3)c2c1=O (stereo not drawn)	4.6%	9
COc1cc(OC)c(NC(=O)c2nc(-c3ccncc3)no2)cc1Cl	-0.4%	-3
Cc1c(CNCc2ccc(Cl)cc2)c(C(=O)O)c(C)n1Cc1ccc(F)cc1	1.5%	-1
COc1ccc(C)cc1NC(=O)c1cc2c(s1)-c1ccccc1SC2	-11%	-14
CCCCN1CC(c2nc3ccccc3n2CCCCOc2cc(C)ccc2C)CC1=O (stereo not drawn)	-2.5%	51
CC(=O)c1c(C)oc2c(Cl)cc(NS(=O)(=O)c3ccc(Cl)cc3)cc12	0.9%	16
COc1ccccc1CNCc1ccc(C(=O)O)s1	0.3%	28
CCCNC(=O)C(C)n1nc(C)c2c(C)n(-c3ccccc3)nc2c1=O (stereo not drawn)	-2.6%	1
O=C(NCc1cccnc1)C(=O)NCC(c1cccnc1)N1CCN(c2ccccc2)CC1 (stereo not drawn)	1.3%	15
COc1ccc(-n2nc3ccc(NC(=O)c4ccc(C#N)cc4F)cc3n2)cc1Cl	1.4%	3
COc1ccc(Br)c(C(=O)Nc2cc3c(cc2N2CCCC2)n(C)c(=O)c(=O)n3C)c1	-12%	5
O=C(CN1C(=O)COc2ccc(S(=O)(=O)N3CCOCC3)cc21)N1CCN(c2ccc(Cl)cc2)CC1	2.7%	42
Cc1ccc(-n2cnc3cc(C(=O)NCCC4=CCCCC4)ccc32)c(C)c1	-1.0%	-14
CC(C)c1ccc(NC(=O)CSc2nc(=O)n(Cc3cccnc3)c3c2CCC3)cc1	0.5%	-18
O=c1c2c3c(sc2nnn1CCCCOc1ccc(Cl)cc1)CCCC3	0.8%	-25
CCC(Sc1nc2ccccc2c2nc(CCc3c(C)n[nH]c3C)nn12)C(=O)Nc1ccc(OC)cc1 (stereo not drawn)	1.1%	-4
COc1ccc(CC(=O)Nc2nnc3n2CCS3)cc1OC	-0.4%	-2
CCCCCn1c(CNC(=O)c2ccc(F)cc2)nc2ccccc21	-3.5%	4
Cn1c(=O)c2c(SCC(=O)NCc3ccco3)nc(-c3cccc(F)c3)nc2n(C)c1=O	-0.8%	49

Among those listed so far, these contain fluorine:
SMILES	ClpP mod	TRPML1 inh
O=C(CCc1ccccc1)N(Cc1cccnc1)c1nc2c(F)cccc2s1	-3.4%	73
Cc1ccc(-c2nc3c4ccccc4n(CC(=O)N4CCN(c5ccc(F)cc5)CC4)c(=O)n3n2)cc1	-3.6%	27
O=C(CS(=O)(=O)c1cccc2nsnc12)Nc1cc(F)ccc1F	-0.6%	7
Cc1c(CNCc2ccc(Cl)cc2)c(C(=O)O)c(C)n1Cc1ccc(F)cc1	1.5%	-1
COc1ccc(-n2nc3ccc(NC(=O)c4ccc(C#N)cc4F)cc3n2)cc1Cl	1.4%	3
CCCCCn1c(CNC(=O)c2ccc(F)cc2)nc2ccccc21	-3.5%	4
Cn1c(=O)c2c(SCC(=O)NCc3ccco3)nc(-c3cccc(F)c3)nc2n(C)c1=O	-0.8%	49

Next compounds follow:
SMILES	ClpP mod	TRPML1 inh
CCCc1cc(=O)n2[nH]c(NC(=O)c3ccccc3Cl)nc2n1	-1.1%	22
COc1ccc(CCNC(=O)CCCn2c(=O)c3ccccc3n(CC(=O)Nc3c(C)cc(C)cc3C)c2=O)cc1OC	1.2%	5
CCCCc1nn2c(=O)cc(COC(=O)c3ccc(NC(=O)c4ccccc4C)cc3)nc2s1	-7.8%	-5
O=C(Nc1ccc(F)c(Cl)c1)Nc1nnc([C@@H]2O[C@H](CO)[C@@H](O)[C@H]2O)s1	-1.8%	-11
O=C(NCC1CCN(Cc2ccccc2F)CC1)Nc1ccc(F)c(Cl)c1	-2.8%	22
Cc1ccc(C)c(NC(=O)c2cnc(N3CCCC3)nc2C)c1	-23%	-1
Cc1cccc(OCC(=O)NCCc2nc3ccccc3[nH]2)c1C	-5.3%	18
Cc1cc(-c2ccc(C)c(S(=O)(=O)N3CCCC(C)C3)c2)on1 (stereo not drawn)	1.6%	55
CN1C(=O)c2c(C(=O)Nc3ccc(Oc4ccncc4)cc3)[nH]c(-c3ccccc3)c2C1=O	-14%	-6
O=C(Nc1cc(NC(=O)c2ccccc2Cl)ccc1Cl)c1ccccc1	-1.9%	?
CCc1ccc(-n2c(=O)c3c(C)c(C(=O)N(C)C)sc3n(CC(=O)Nc3cc(Cl)ccc3C)c2=O)cc1	2.4%	-2
Cc1ccc(Cl)cc1N1CCN(C(=O)c2ccc(CS(=O)c3ccccc3)o2)CC1 (stereo not drawn)	1.2%	-7

Part of the list above in another layout:
Cc1cccc(OCC(=O)NCCc2nc3ccccc3[nH]2)c1C
  ClpP mod: -5.3%; TRPML1 inh: 18
Cc1cc(-c2ccc(C)c(S(=O)(=O)N3CCCC(C)C3)c2)on1 (stereo not drawn)
  ClpP mod: 1.6%; TRPML1 inh: 55
CN1C(=O)c2c(C(=O)Nc3ccc(Oc4ccncc4)cc3)[nH]c(-c3ccccc3)c2C1=O
  ClpP mod: -14%; TRPML1 inh: -6
O=C(Nc1cc(NC(=O)c2ccccc2Cl)ccc1Cl)c1ccccc1
  ClpP mod: -1.9%; TRPML1 inh: ?

More results
SMILES	ClpP mod	TRPML1 inh
CCn1cc(C(=O)NCCc2ccc(C)cc2)c(=O)c2cc(S(=O)(=O)N3CCCCC3)ccc21	0.3%	7
CCOc1cccc(CNC(=O)c2ccc(N3CCCC3)c(NC(=O)Nc3ccccc3CC)c2)c1	-3.5%	1
CCOc1ccc(CCNC(=O)Cn2nc(CC)n3c(cc4sc(CC)cc43)c2=O)cc1OCC	-1.2%	-7
Cc1ccc(C)c(N2CCN(C(=O)c3cc(S(=O)(=O)N4CCCC4)c[nH]3)CC2)c1	1.9%	-13
Cc1ccc(S(=O)(=O)c2c(Nc3cccc(Cl)c3)sc(C(=O)c3ccc4c(c3)OCO4)c2N)cc1	-5.0%	4
COc1ccc(-n2nc(C(=O)NCCc3ccc(OC)c(OC)c3)c3c4ccccc4n(C)c3c2=O)cc1Cl	?	-10
Nc1nc(N)c(S(=O)(=O)c2ccccc2)c(Nc2ccc(Br)cc2)n1	-30%	-17
CCCn1c2ccccc2c2cnn(CC(=O)Nc3cccc(C(=O)OCC)c3)c(=O)c21	5.0%	44
COC(=O)c1cc(-c2ccc(Cl)cc2)c2c(=O)[nH]c(=O)n(C)c2n1	4.2%	-18
CC1=C(C(=O)N2CCOCC2)CC(CC(=O)NCc2cccs2)C(=O)N1Cc1ccccc1 (stereo not drawn)	0.6%	-14
CCOC(=O)c1c(S(=O)(=O)N2CCCC(C(=O)Nc3ccc(OCC)cc3)C2)c(C)n(C)c1C (stereo not drawn)	-2.0%	5
CC1(C(=O)Nc2cnc3ccccc3c2)CCN1C(=O)CC(c1ccccc1)c1ccccc1 (stereo not drawn)	-5.3%	66
COc1cccc(N2CCN(S(=O)(=O)c3ccc(-c4ccno4)cc3OC)CC2)c1	-0.1%	-9
COc1ccc(NC(=O)c2cc3c(s2)-c2c(C)cccc2OC3)c(OC)c1	-11%	6
CCOc1ccc(CNC(=O)c2cnc3sc(N4CCCCCC4)nn3c2=O)cc1OC	-23%	-19
CCOCCCNC(=O)C(c1ccc(C)cc1)N(Cc1ccc2c(c1)OCO2)C(=O)c1ccccc1O (stereo not drawn)	-0.5%	-16
COc1ccc(Br)cc1CNC(=O)CN1C(=O)c2cccnc2Oc2ccc(C)cc21	0.3%	2
CCc1c(C)c2ccc(O)c(CN3CCN(c4ccc(OC)cc4)CC3)c2oc1=O	3.7%	2
Cn1c(C(=O)NCc2ccccc2F)cc2cc(S(=O)(=O)N3CCCCC3)ccc21	-3.1%	1
Cc1c(NS(=O)(=O)c2ccc(C(C)(C)C)cc2)c(=O)n(-c2ccccc2)n1C	0.1%	5
CCN(Cc1ccccc1)S(=O)(=O)c1ccc2[nH]c3c(c2c1)CCCCC3	?	-15
COc1ccc(C(=O)NCc2nnc(SCC(=O)Nc3ccc(C)cc3)n2-c2ccccc2)cc1	0.0%	20
O=C(NCc1ccc(Cl)cc1)c1cnc(N2CCCCC2)c2ccccc12	28µM*	-16
CCC(C)NC(=O)c1ccc2c(c1)N(Cc1cccc(Cl)c1)C(=O)c1ccccc1S2=O (stereo not drawn)	1.2%	6
CC(=O)c1cccc(NC(=O)c2sc(-n3nc(C)c(CCC(C)C)c3C)nc2C)c1	-5.1%	11
Cc1cc(O)c(CN2CCN(c3ccc(F)cc3)CC2)c2oc(=O)cc(C)c12	-1.9%	20
O=C(NCCCN1CCN(c2cccc(Cl)c2)CC1)Nc1ccccc1C(F)(F)F	3.0%	-15
CCC(C)n1c(=N)c(C(=O)NC2CCCCC2)cc2c(=O)n3cc(C)ccc3nc21 (stereo not drawn)	4.0%	-17
N#CC1=C2SCN(C3CCCCC3)CN2C(=O)CC1c1c(F)cccc1Cl (stereo not drawn)	-1.7%	-4
CCOc1ccccc1NC(=O)C1CCN(S(=O)(=O)c2ccccc2)CC1	-1.1%	-3
CN(C)CCCn1c(-c2ccc(Cl)cc2)csc1=Nc1ccccc1	0.1%	17
COCCNC(=O)c1ccc2c(c1)N=C(C)c1cc(C)ccc1S2	-1.3%	-20
CCOC(=O)c1ccc(N2CCN(c3cc(C)ccc3C)CC2)c(NC(=O)Nc2ccccc2)c1	4.1%	5
CCCC(=O)NCC1(N(C)C)CCCCC1	3.0%	?
COc1ccc(NC(=O)c2c(C)oc3ccc(O)c(CN4CCCC4)c23)cc1Cl	0.7%	-18
CC(C)CCNC(=O)Cn1c(-c2cccs2)cc2cc(F)ccc21	32µM*	10
CNc1cccc(-c2cccc(O)c2)n1	4.4%	51
CN(C)c1ccc(C(CNC(=O)c2ccccc2Cl)N2CCCC2)cc1 (stereo not drawn)	-0.8%	2
COC(=O)c1ccc(NC(=O)CC2C(=O)N(c3ccc(F)cc3)C(=O)N2Cc2ccc(OC)cc2)cc1 (stereo not drawn)	-0.8%	4
COc1cccc(CNC(=O)c2cnc3c(-c4ccc(F)cc4)c(C)nn3c2C)c1	1.6%	21
Cc1cn([C@H]2C[C@H](O)[C@@H](/C=C/C(=O)NCc3ccc4c(c3)OCO4)O2)c(=O)[nH]c1=O	-1.1%	-22
CCOc1ccc(CNC(=O)C2=Cc3cccc(OC)c3OC2)cc1	-3.9%	4
Cc1cc(C)nc(NS(=O)(=O)c2ccc(NC(=O)COc3ccc(C(C)(C)C)cc3)cc2)n1	-3.8%	18
OC1c2c(F)cccc2N=C2CCCCN21 (stereo not drawn)	4.9%	11
CCOC(=O)C1CCN(c2ncnc3c2c(-c2ccccc2)cn3-c2cccc(C)c2)CC1	-4.5%	-7
COc1ccccc1CNc1ccc(-c2nc(C)no2)cc1[N+](=O)[O-]	-0.9%	19

High-throughput results as filed in PubChem.

This is a subset. The share of hits here may be higher or lower than overall.
